Source: PubChem BioAssay (several laboratories)
Ecoli rRNA inh – inhibits bacterial ribosomal RNA function over humanized ribosomes; GFP signal change (wild-type ribosome), % (test concentration not listed); 350,000 tested, 1.6% active; E. coli WT GFP vs humanized-ribosome RFP mutants, fluorescence, 24 h; hits give low values; DMSO median 0, no signal -100; AID 720706;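 active = significant combined selectivity score with lowered wild-type GFP, culture density cut under 30%, mutant RFP and density less affected; inactive = any of these conditions unmet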; also: one replicate is shown; some compounds called inactive have numbers as strong as hits
UCH37 inh – human UCH37 deubiquitinating enzyme inhibition; purified proteasome/UCH37, Ub-AMC cleavage fluorescence; 330,000 tested, 0.33% active; inhibition, % (test concentration not listed); Q9Y5K5;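 active = mean of two replicates above 20%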;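 also: 0% = compound-free wells with enzyme and 100% = wells lacking proteasome; stock transfer was 100 nL into about 20 µL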
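Material: human UCH37 enzyme supplied as purified proteasome complex / Amount: 0.15 nM proteasome as dispensed / Buffer or medium: pH 7.4 Tris-HCl (50 mM) with ovalbumin, ATP-MgCl2, DTT / Times: preincubation 30 min, reaction 25 min, room temperature / Technique: AMC fluorescence from Ub-AMC cleavage, excitation 355 nm, emission 460 nm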
Ecoli growth – E. coli growth inhibition; Escherichia coli growth, OD600, 23 h; hits give low values; OD600 absorbance (test concentration not listed); 330,000 tested, 0.21% active; AID 1053175;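 active = OD600 absorbance below the run mean of sample wells minus 3.6 SD, in any replicate, cut at about 0.56 in these data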;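 also: stock transfer was 300 nL into about 60 µL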
B2AR ag – activates human beta-2 adrenergic receptor causing internalization | P07550 | response, % (no concentration beside the values) | 340,000 tested, 0.43% active | AID 504454 | Am2.2-beta2AR cells, FAP receptor internalization, flow cytometry; reference of the scale not given here;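 active = response above a set limit, near 3 SD of response in nonfluorescent compounds, cut at about 42% in these data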;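 also: stock transfer was 100 nL into about 11 µL; a reference agonist was the positive control; negative values mostly stem from fluorescent compounds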
Target sequence (P07550 whole entry, looked up): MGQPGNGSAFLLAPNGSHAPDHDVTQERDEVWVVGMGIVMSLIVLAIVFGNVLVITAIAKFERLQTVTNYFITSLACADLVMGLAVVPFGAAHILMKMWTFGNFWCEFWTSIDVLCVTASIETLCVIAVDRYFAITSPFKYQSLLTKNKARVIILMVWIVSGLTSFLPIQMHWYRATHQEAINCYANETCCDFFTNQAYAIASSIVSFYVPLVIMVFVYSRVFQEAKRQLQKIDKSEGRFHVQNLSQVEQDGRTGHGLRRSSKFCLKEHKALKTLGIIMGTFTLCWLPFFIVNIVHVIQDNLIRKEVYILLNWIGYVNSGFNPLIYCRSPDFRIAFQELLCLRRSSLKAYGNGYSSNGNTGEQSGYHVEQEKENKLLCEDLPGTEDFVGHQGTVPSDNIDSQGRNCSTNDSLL
FGF22 binding – binders of recombinant human FGF22 by thermal shift | SYPRO orange fluorescence; percent of sucrose octasulfate shift, DMSO zero | AID 651658 | calls only at 9.99 µM | Q9HCT0 | 340,000 tested, 1.5% active;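 active = melting point raised past a set limit in the mean and every replicate; three in four hits are not shown here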
ALR H2O2 inh – inhibitors of human sulfhydryl oxidase ALR; P55789; purified ALR, DTT oxidation, H2O2 HRP-luminol luminescence; inhibition, % (concentration not given with the values); 290,000 tested, 3.8% active;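 active = mean and each replicate at 75% or more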;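 also: stock transfer was 7.5 nL into about 7.5 µL; 0% = neutral wells and 100% = wells with inactivated enzyme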
Target sequence (P55789 whole entry, looked up): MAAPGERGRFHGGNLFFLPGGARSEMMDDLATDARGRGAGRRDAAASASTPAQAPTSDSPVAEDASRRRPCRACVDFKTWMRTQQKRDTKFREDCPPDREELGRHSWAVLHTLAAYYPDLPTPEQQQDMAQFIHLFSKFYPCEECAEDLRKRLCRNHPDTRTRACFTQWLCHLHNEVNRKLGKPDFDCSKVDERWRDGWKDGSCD
HNF4A DNA FP – change in binding of human HNF4 alpha to DNA; HNF4a-FITC DNA binding, fluorescence polarization, 1 h; 360,000 tested, 0.3% active; AID 1224865; activity change, % at 10 µM; P41235; in the data active = activity change above about 30%, passing the limit was not always enough;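 also: controls were the assay level and a saturating level of protein; the project sought stronger binding though the title names inhibitors; some compounds called inactive have numbers as strong as hits; positive values seem to mean higher polarization but the record does not say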
Target sequence (P41235 whole entry, looked up): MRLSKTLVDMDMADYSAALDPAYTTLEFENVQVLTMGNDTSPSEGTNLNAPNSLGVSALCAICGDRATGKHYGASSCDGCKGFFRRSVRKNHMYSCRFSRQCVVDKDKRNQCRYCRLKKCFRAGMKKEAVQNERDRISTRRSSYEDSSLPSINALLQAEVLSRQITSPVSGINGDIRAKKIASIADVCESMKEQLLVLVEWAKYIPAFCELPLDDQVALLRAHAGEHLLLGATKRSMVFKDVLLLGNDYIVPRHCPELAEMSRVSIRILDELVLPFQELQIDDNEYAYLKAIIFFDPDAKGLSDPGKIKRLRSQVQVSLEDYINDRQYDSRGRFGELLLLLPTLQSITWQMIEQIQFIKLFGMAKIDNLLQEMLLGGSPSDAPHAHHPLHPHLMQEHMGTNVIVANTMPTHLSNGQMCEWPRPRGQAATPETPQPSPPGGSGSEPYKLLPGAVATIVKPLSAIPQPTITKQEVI
Ecoli rRNA inh OD600 – also measured in Ecoli rRNA inh; calls as there; OD600 change, %; measured here: OD600 growth;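 optical density of the mix in the first replicate; 0 = DMSO median and -100 = no signal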
Ecoli rRNA inh RFP – also measured in Ecoli rRNA inh; calls as there; RFP signal change, %; measured here: RFP humanized mutant strains;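 first replicate; 0 = DMSO median and -100 = no signal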
* = called active by the depositor.

The opening two records (preview)
For O=C(NC1CCN(Cc2ccccc2)CC1)c1cccc(S(=O)(=O)Nc2ccc(SC(F)F)cc2)c1 the results were Ecoli rRNA inh -55, UCH37 inh 8.6, Ecoli growth 0.7, B2AR ag 16, FGF22 binding inactive, ALR H2O2 inh 99*, HNF4A DNA FP -1.2, Ecoli rRNA inh OD600 -82 and Ecoli rRNA inh RFP -18.
Screening O=C(c1ccco1)N1CCN(C(=O)c2ccccc2Oc2ccccc2)CC1 returned Ecoli rRNA inh 6, UCH37 inh -0.4, Ecoli growth 0.67, B2AR ag -7, FGF22 binding inactive, ALR H2O2 inh -7, HNF4A DNA FP -0.7, Ecoli rRNA inh OD600 -6 and Ecoli rRNA inh RFP -2.5.

All compounds of this part, previewed entries included:
For O=C(NC1CCN(Cc2ccccc2)CC1)c1cccc(S(=O)(=O)Nc2ccc(SC(F)F)cc2)c1 the results were Ecoli rRNA inh -55, UCH37 inh 8.6, Ecoli growth 0.7, B2AR ag 16, FGF22 binding inactive, ALR H2O2 inh 99*, HNF4A DNA FP -1.2, Ecoli rRNA inh OD600 -82 and Ecoli rRNA inh RFP -18.
Screening O=C(c1ccco1)N1CCN(C(=O)c2ccccc2Oc2ccccc2)CC1 returned Ecoli rRNA inh 6, UCH37 inh -0.4, Ecoli growth 0.67, B2AR ag -7, FGF22 binding inactive, ALR H2O2 inh -7, HNF4A DNA FP -0.7, Ecoli rRNA inh OD600 -6 and Ecoli rRNA inh RFP -2.5.
`COCC(=O)Nc1ccc(Br)cc1C` gave Ecoli rRNA inh -1, UCH37 inh 4.5, Ecoli growth 0.68, B2AR ag 0, FGF22 binding inactive, ALR H2O2 inh 0, HNF4A DNA FP -0.8, Ecoli rRNA inh OD600 5 and Ecoli rRNA inh RFP 2.7.
`CC(C)c1cccc(OCCN2CCCC2)c1` gave Ecoli rRNA inh 1, UCH37 inh 0.6, Ecoli growth 0.69, B2AR ag 3, FGF22 binding inactive, ALR H2O2 inh -13, HNF4A DNA FP 5.2, Ecoli rRNA inh OD600 3 and Ecoli rRNA inh RFP 1.3.
For Cc1cc(C)c(OCCCCN(C)C)c(Br)c1 the results were Ecoli rRNA inh 0, UCH37 inh 1.1, Ecoli growth 0.67, B2AR ag 0, FGF22 binding inactive, HNF4A DNA FP 3.0, Ecoli rRNA inh OD600 -3 and Ecoli rRNA inh RFP -3.1.
Cc1nnc(NC(=O)CSc2cn(Cc3ccccc3)c3ccccc23)s1 was read as Ecoli rRNA inh 4, UCH37 inh 2.5, Ecoli growth 0.78, B2AR ag 4, FGF22 binding inactive, ALR H2O2 inh -1, HNF4A DNA FP 4.7, Ecoli rRNA inh OD600 3 and Ecoli rRNA inh RFP 0.7.
For Cc1cccc(N2CCN(S(=O)(=O)c3c(C)[nH]c(=O)[nH]c3=O)CC2)c1C the results were UCH37 inh 3.1, Ecoli growth 0.68, B2AR ag 6, ALR H2O2 inh 33 and HNF4A DNA FP 3.5.
`S=c1[nH]ncn1/N=C/c1ccc(N2CCOCC2)cc1` gave B2AR ag -4, ALR H2O2 inh 99* and HNF4A DNA FP 1.0.
For O=C(CCN1C(=O)/C(=C\c2ccccc2Cl)SC1=S)Nc1cccnc1 the results were Ecoli rRNA inh -1, UCH37 inh 5.3, Ecoli growth 0.7, B2AR ag -7, FGF22 binding inactive, ALR H2O2 inh 1, HNF4A DNA FP -1.1, Ecoli rRNA inh OD600 3 and Ecoli rRNA inh RFP 2.6.
For CCCCn1nc2cc(C(=O)NC[C@@H]3CCCO3)ccc2c1OCC the results were Ecoli rRNA inh 7, UCH37 inh -76, B2AR ag 4, FGF22 binding inactive, ALR H2O2 inh -16, HNF4A DNA FP -2.8, Ecoli rRNA inh OD600 4 and Ecoli rRNA inh RFP -1.3.
For CC1CCc2cc(F)ccc2N1C(=O)CSc1nnc2c(n1)[nH]c1ccccc12 (stereo not drawn) the results were Ecoli rRNA inh 20, UCH37 inh 6.2, Ecoli growth 0.74, B2AR ag 16, FGF22 binding inactive, ALR H2O2 inh -7, HNF4A DNA FP -1.3, Ecoli rRNA inh OD600 3 and Ecoli rRNA inh RFP 3.4.
COC(=O)c1ccc(Cn2cnc3c(cnn3-c3ccc(F)cc3)c2=O)o1 was read as UCH37 inh 3.5, Ecoli growth 0.71, B2AR ag 2, ALR H2O2 inh 10 and HNF4A DNA FP 0.1.
Screening COc1ccccc1-c1noc(CSc2nc(C)cc(=O)[nH]2)n1 returned Ecoli rRNA inh 6, UCH37 inh 2.5, Ecoli growth 0.68, B2AR ag -1, FGF22 binding inactive, ALR H2O2 inh -60, HNF4A DNA FP -1.3, Ecoli rRNA inh OD600 15 and Ecoli rRNA inh RFP -0.2.
`O=C(COC(=O)c1ccc(S(=O)(=O)N2CCCC2)cc1)NCc1cccs1` gave Ecoli rRNA inh 6, UCH37 inh 2.6, Ecoli growth 0.69, B2AR ag 2, FGF22 binding inactive, ALR H2O2 inh -4, HNF4A DNA FP 1.4, Ecoli rRNA inh OD600 5 and Ecoli rRNA inh RFP -1.1.
For COc1ccccc1NC(=O)CSc1nnc(Cc2cccn2C)n1-c1ccc(F)cc1 the results were Ecoli rRNA inh 2, UCH37 inh 1.7, Ecoli growth 0.74, B2AR ag -3, HNF4A DNA FP 2.6, Ecoli rRNA inh OD600 0 and Ecoli rRNA inh RFP 2.6.
Screening COc1ccc(C(=O)c2[nH]c(N)c(C(=O)NCCc3c[nH]c4ccccc34)c2-c2ccc(Br)cc2)cc1 returned Ecoli rRNA inh -7, FGF22 binding inactive, HNF4A DNA FP 8.5, Ecoli rRNA inh OD600 -3 and Ecoli rRNA inh RFP 28.
For Cc1ccc(S(=O)(=O)N(CC(=O)Nc2cc(C)ccc2C)C(=O)N2CCN(C)CC2)cc1 the results were Ecoli rRNA inh 6, UCH37 inh -0.4, Ecoli growth 0.7, B2AR ag -11, FGF22 binding inactive, ALR H2O2 inh -11, HNF4A DNA FP 2.5, Ecoli rRNA inh OD600 13 and Ecoli rRNA inh RFP -2.1.
For O=c1cc2ncc(-n3cc([N+](=O)[O-])cn3)cn2[nH]1 the results were Ecoli rRNA inh -14, UCH37 inh 8.9, Ecoli growth 0.64, B2AR ag 9, FGF22 binding inactive, ALR H2O2 inh 11, HNF4A DNA FP -1.1, Ecoli rRNA inh OD600 -3 and Ecoli rRNA inh RFP -6.0.
COc1ccccc1-c1cc2nc(C)c(CCC(=O)NCc3ccco3)c(C)n2n1 was read as Ecoli rRNA inh -5, UCH37 inh -12, Ecoli growth 0.71, B2AR ag 10, FGF22 binding inactive, ALR H2O2 inh 16, HNF4A DNA FP -1.1, Ecoli rRNA inh OD600 -7 and Ecoli rRNA inh RFP 1.2.
COn1c(-c2ccc(Cl)cc2)nc2ncccc21 was read as Ecoli rRNA inh 3, UCH37 inh -82, Ecoli growth 0.65, B2AR ag 3, FGF22 binding inactive, ALR H2O2 inh -3, HNF4A DNA FP 5.8, Ecoli rRNA inh OD600 -1 and Ecoli rRNA inh RFP -1.3.
`Cc1nc2c(Br)cc(Br)cc2c(=O)n1-c1ccccc1NC1OCC(O)C(O)C1O` (stereo not drawn) gave Ecoli rRNA inh -4, B2AR ag 0, FGF22 binding inactive, HNF4A DNA FP -2.3, Ecoli rRNA inh OD600 -1 and Ecoli rRNA inh RFP 3.6.
`CC(O)[C@H]1CN=C(N)N1CCCCC1CCCCC1` (stereo partly drawn) gave Ecoli rRNA inh 2, UCH37 inh -0.6, B2AR ag -6, FGF22 binding inactive, ALR H2O2 inh 2, HNF4A DNA FP 6.6, Ecoli rRNA inh OD600 -5 and Ecoli rRNA inh RFP -5.2.
For O=C(CSc1nnc(-c2cccs2)o1)NCc1ccco1 the results were Ecoli rRNA inh 10, UCH37 inh 4.3, Ecoli growth 0.71, B2AR ag 0, FGF22 binding inactive, ALR H2O2 inh -1, HNF4A DNA FP 0.5, Ecoli rRNA inh OD600 2 and Ecoli rRNA inh RFP -7.0.
Screening Cc1ccc(S(=O)(=O)Nc2cccc(C(=O)NC3CCN(Cc4ccccc4)CC3)c2)cc1F returned Ecoli rRNA inh 9, UCH37 inh -0.5, Ecoli growth 0.62, B2AR ag 22, FGF22 binding inactive, HNF4A DNA FP 1.4, Ecoli rRNA inh OD600 -6 and Ecoli rRNA inh RFP 7.8.
For COc1ccc(CNc2ncc(-c3ccccc3)n2C)c(OC)c1OC the results were Ecoli rRNA inh 5, UCH37 inh 1.8, Ecoli growth 0.66, B2AR ag -2, FGF22 binding inactive, ALR H2O2 inh 65, HNF4A DNA FP -2.0, Ecoli rRNA inh OD600 8 and Ecoli rRNA inh RFP 3.2.
`CCCC(=O)N(CCN1CCOCC1)c1nc2c(OC)ccc(OC)c2s1` gave Ecoli rRNA inh -2, UCH37 inh 5.7, Ecoli growth 0.69, B2AR ag -3, FGF22 binding inactive, ALR H2O2 inh -26, HNF4A DNA FP 0.6, Ecoli rRNA inh OD600 -6 and Ecoli rRNA inh RFP -1.6.
Screening O=C(OCCN1C(=O)c2ccccc2C1=O)c1cc(S(=O)(=O)N2CCOCC2)ccc1F returned UCH37 inh 2.1, Ecoli growth 0.73, B2AR ag 11, ALR H2O2 inh -8 and HNF4A DNA FP 0.8.
Cc1ccc(NC(=O)CCCNC(=O)c2ccc(Cl)cc2)nc1 was read as Ecoli rRNA inh 14, UCH37 inh -1.5, Ecoli growth 0.68, B2AR ag 2, FGF22 binding inactive, ALR H2O2 inh -4, HNF4A DNA FP -0.4, Ecoli rRNA inh OD600 14 and Ecoli rRNA inh RFP 0.0.
CCCCCCN1C[C@H](n2cc(C3CC3)nn2)[C@@H](O)C[C@@H]1c1ccc(C)cc1 was read as Ecoli rRNA inh -11, FGF22 binding inactive, HNF4A DNA FP -5.1, Ecoli rRNA inh OD600 -31 and Ecoli rRNA inh RFP -1.1.
For CCOC(=O)C1CCN(S(=O)(=O)c2cn(C)c(=O)n(C)c2=O)CC1 the results were Ecoli rRNA inh -1, UCH37 inh 3.1, Ecoli growth 0.66, B2AR ag -10, FGF22 binding inactive, ALR H2O2 inh -40, HNF4A DNA FP 7.4, Ecoli rRNA inh OD600 10 and Ecoli rRNA inh RFP -1.0.
COc1ccc(NC(=O)CSc2ncn(-c3ccccc3)n2)cc1Cl was read as Ecoli rRNA inh 1, UCH37 inh 4.2, Ecoli growth 0.71, B2AR ag -7, ALR H2O2 inh 0, HNF4A DNA FP -2.9, Ecoli rRNA inh OD600 -3 and Ecoli rRNA inh RFP -0.1.
`CN1CCN(C(CNS(=O)(=O)c2cccs2)c2cccnc2)CC1` (stereo not drawn) gave Ecoli rRNA inh -2, UCH37 inh 0.9, Ecoli growth 0.79, B2AR ag -2, FGF22 binding inactive, ALR H2O2 inh -9, HNF4A DNA FP -3.5, Ecoli rRNA inh OD600 14 and Ecoli rRNA inh RFP -0.2.
Screening CCc1ccc(NC(=O)CSc2nnc(-c3cnccn3)n2C)cc1 returned Ecoli rRNA inh 5, UCH37 inh 3.7, Ecoli growth 0.68, B2AR ag -1, FGF22 binding inactive, ALR H2O2 inh -2, HNF4A DNA FP -2.0, Ecoli rRNA inh OD600 3 and Ecoli rRNA inh RFP -0.8.
Screening COc1cc(C2C(C(C)=O)=C(O)C(=O)N2CCN2CCOCC2)ccc1O (stereo not drawn) returned UCH37 inh 1.3, Ecoli growth 0.75, B2AR ag 1, ALR H2O2 inh 12 and HNF4A DNA FP -1.2.
Cc1ccc(/C=N/NC(=O)Cc2ccc(Cl)cc2)c(O)c1 was read as Ecoli rRNA inh -4, B2AR ag 3, FGF22 binding inactive, ALR H2O2 inh -15, HNF4A DNA FP -0.8, Ecoli rRNA inh OD600 2 and Ecoli rRNA inh RFP -1.1.

The list is partial. The share of hits here may be higher or lower than overall.
